LANA-H2B inh – blocks KSHV LANA binding to histone H2A/H2B. Q9QR71. cell-free LANA-H2A/H2B peptide, fluorescence polarization. inhibition, % (concentration not given with the values). actives 0.6% (n = 320,000); in the data active = inhibition mostly above about 10%, no sharp cut-off; inactive = mostly below about 6.7%;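 also: stock transfer was 7.5 nL into about 10 µL; 0% = median of vehicle wells and 100% = median of positive control wells; one replicate is shown; the record names a cut of 25% in any replicate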
UCH37 inh – inhibitors of human deubiquitinating enzyme UCH37; purified proteasome/UCH37, Ub-AMC cleavage fluorescence; inhibition, % (no concentration beside the values); actives 0.33% (n = 330,000);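 active = mean of two replicates above 20%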;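 also: 0% = compound-free wells with enzyme and 100% = wells lacking proteasome; stock transfer was 100 nL into about 20 µL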
Target sequence (Q9Y5K5 whole entry, looked up): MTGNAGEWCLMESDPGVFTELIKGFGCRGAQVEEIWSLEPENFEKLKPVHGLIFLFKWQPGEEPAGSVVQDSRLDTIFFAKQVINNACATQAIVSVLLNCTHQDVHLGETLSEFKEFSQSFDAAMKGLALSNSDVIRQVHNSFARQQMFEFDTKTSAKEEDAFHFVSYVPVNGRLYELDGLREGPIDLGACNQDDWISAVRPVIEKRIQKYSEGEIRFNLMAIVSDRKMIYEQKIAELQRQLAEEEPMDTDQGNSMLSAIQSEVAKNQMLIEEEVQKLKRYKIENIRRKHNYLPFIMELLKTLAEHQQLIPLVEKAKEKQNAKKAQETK
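assay system = human UCH37 enzyme supplied as purified proteasome complex | amount = proteasome at 0.15 nM in the dispensed enzyme solution | schedule = 30 min compound-proteasome preincubation then 25 min substrate reaction, room temperature | measured by = fluorescence, ex 355 nm, em 460 nm | benchmarks = no-proteasome wells (full inhibition) and compound-free wells (no inhibition)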
HNF4A DNA FP – change in binding of human HNF4 alpha to DNA | P41235 | HNF4a-FITC DNA binding, fluorescence polarization, 1 h | activity change, % at 10 µM | actives 0.3% (n = 360,000) | AID 1224865; in the data active = activity change above about 30%, passing the limit was not always enough;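 also: controls were the assay level and a saturating level of protein; the project sought stronger binding though the title names inhibitors; some compounds called inactive have numbers as strong as hits; positive values seem to mean higher polarization but the record does not say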
E coli growth – E. coli growth inhibition; Escherichia coli growth, OD600, 23 h; active compounds read low; OD600 absorbance (concentration not given with the values); actives 0.21% (n = 330,000);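 active = OD600 absorbance below the run mean of sample wells minus 3.6 SD, in any replicate, cut at about 0.56 in these data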;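 also: stock transfer was 300 nL into about 60 µL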
ALR H2O2 inh – blocks human ALR sulfhydryl oxidase activity; P55789; purified ALR, DTT oxidation, H2O2 HRP-luminol luminescence; AID 485317; inhibition, % (no concentration beside the values); actives 3.8% (n = 290,000);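 active = mean and each replicate at 75% or more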;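 also: stock transfer was 7.5 nL into about 7.5 µL; 0% = neutral wells and 100% = wells with inactivated enzyme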
Beta2AR agonist – activates human beta-2 adrenergic receptor causing internalization; P07550; Am2.2-beta2AR cells, FAP receptor internalization, flow cytometry; reference of the scale not given here; response, % (no concentration beside the values); actives 0.43% (n = 340,000);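 active = response above a set limit, near 3 SD of response in nonfluorescent compounds, cut at about 42% in these data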;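 also: stock transfer was 100 nL into about 11 µL; a reference agonist was the positive control; negative values mostly stem from fluorescent compounds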
Target sequence (P07550 whole entry, looked up): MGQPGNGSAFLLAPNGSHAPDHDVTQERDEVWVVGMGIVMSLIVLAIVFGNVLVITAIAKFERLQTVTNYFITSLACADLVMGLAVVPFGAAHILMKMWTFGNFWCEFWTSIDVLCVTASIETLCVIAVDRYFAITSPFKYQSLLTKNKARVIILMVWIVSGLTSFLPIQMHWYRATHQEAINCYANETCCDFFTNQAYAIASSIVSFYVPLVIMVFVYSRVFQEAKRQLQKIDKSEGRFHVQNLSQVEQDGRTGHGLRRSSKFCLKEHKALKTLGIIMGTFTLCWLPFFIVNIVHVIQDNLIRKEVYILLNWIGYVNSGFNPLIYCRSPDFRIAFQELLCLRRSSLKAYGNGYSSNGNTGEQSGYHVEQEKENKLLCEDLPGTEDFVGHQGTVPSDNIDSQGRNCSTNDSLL
FGF22 binding – FGF22 (human) thermal shift binding; AID 651658; actives 1.5% (n = 340,000); calls only at 9.99 µM; Q9HCT0; recombinant FGF22 thermal shift, SYPRO orange fluorescence; percent of sucrose octasulfate shift, DMSO zero;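 active = melting point raised past a set limit in the mean and every replicate; three in four hits are not shown here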
Target sequence (Q9HCT0 whole entry, looked up): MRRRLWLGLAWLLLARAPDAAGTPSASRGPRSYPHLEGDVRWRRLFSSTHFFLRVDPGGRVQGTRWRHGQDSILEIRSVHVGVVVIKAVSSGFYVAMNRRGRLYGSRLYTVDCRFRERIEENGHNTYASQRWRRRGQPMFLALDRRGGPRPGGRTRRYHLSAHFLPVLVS
* hit, by the source's call; i = inactive; . = not tested or not shown. Not all compounds are listed; count on the stated rates, not on these rows.

Values in the order: LANA-H2B inh	UCH37 inh	HNF4A DNA FP	E coli growth	ALR H2O2 inh	Beta2AR agonist	FGF22 binding
Cc1nc(-c2ccc(C(=O)O)cc2)cs1
→ -2.4	1.6	-2.9	0.7	-2	4	.
CCOc1ccc(CCNC(=O)CCS(=O)(=O)c2ccc(C)cc2)cc1OCC
→ 4.6	0.0	1.9	0.66	.	2	i
CCCCc1ccc(/C=C2\C(=O)ON=C2c2ccccc2)s1
→ 3.6	2.8	-0.7	0.69	3	5	i
COc1cccc(CN(C)c2nc(-c3cccs3)nc3ccccc23)c1
→ 4.2	-8.6	3.7	0.72	0	-6	i
COC(=O)C1=C(C)N=C2SCCC(=O)N2C1c1cc(Br)ccc1OC (stereo unspecified)
→ 4.3	0.7	-0.3	0.72	-2	-9	.
CC1CCCC(C)N1C(=O)CNCc1ccc2c(c1)OCO2 (stereo unspecified)
→ -6.2	1.5	-4.6	0.63	.	6	i
CC[C@]12c3[nH]c4ccccc4c3CCN1C(=O)C(CC(=O)NCc1cccc(C(F)(F)F)c1)C[C@@H]2C(=O)N1CCN(C(=O)c2ccco2)CC1 (stereo partly specified)
→ i	0.5	0.6	0.71	-5	-4	i
Cc1ccc(NC2=C(Cl)C(=O)OC2OC(C)C)cc1 (stereo unspecified)
→ 1.8	2.8	2.8	0.68	-2	0	i
Cc1ccc(Cl)cc1NC(=O)C(=O)N/N=C/c1ccc2c(c1)OCO2
→ 2.7	.	-0.7	.	-4	-6	i
COc1ccc(CC(C)Nc2ccccc2F)cc1 (stereo unspecified)
→ -1.3	2.1	0.0	0.6	30	1	i
COCCCn1c(SCC(=O)Nc2ccc(NC(=O)c3ccco3)c(OC)c2)nc2ccccc2c1=O
→ 28*	-176	1.4	0.73	-3	5	.
Oc1ccc2cc(Br)ccc2c1CN1CCCC1
→ 4.2	0.4	2.5	0.67	76*	5	i
Cn1cc(/C=N/NC(=O)COc2ccccc2[N+](=O)[O-])c2ccccc21
→ -0.9	.	0.1	.	-2	-7	i
Nc1cc(N)nc(SCCOc2ccccc2F)n1
→ 0.7	2.0	-3.2	0.67	6	1	.
S=C1NC2=C(CCCC2=C2SCCCS2)C(c2ccccc2)N1 (stereo unspecified)
→ -2.5	.	-0.8	.	-7	7	i
O=c1[nH]c(Cc2ccc(F)cc2)nc2scc(-c3ccc(F)cc3)c12
→ 1.3	0.5	0.5	0.71	-6	1	i
CCCn1c(N)c(N2CCCCC2)c(=O)n(CC(=O)Nc2ccc(OC(F)(F)F)cc2)c1=O
→ -1.8	4.6	-3.1	0.69	-1	0	.
CCCCCN(C(=O)CCC(=O)OCC(=O)N1CCCC(C)C1)c1c(N)n(CCCC)c(=O)[nH]c1=O (stereo unspecified)
→ 0.9	-0.1	-0.7	0.67	-3	-2	i
CC1(C)NC(=O)N(CC(O)CN2C(=O)CCC2=O)C1=O (stereo unspecified)
→ 4.5	4.8	-2.6	0.74	-15	-3	.
COc1cccc(NS(=O)(=O)c2c(C)n(C)c(=O)n(C)c2=O)c1
→ 1.3	5.3	3.4	0.77	.	4	i
CS(=O)(=O)c1ccc(Cl)c(NC(=O)CN2CCN(C(=O)c3cccs3)CC2)c1
→ -4.1	-0.2	4.1	0.67	-3	-7	i
COc1ccc(N(C)C(=O)c2cc3c(s2)-c2ccc(Cl)cc2S(=O)(=O)C3)c(OC)c1
→ 2.5	0.3	-0.4	0.64	0	15	i
O=C(c1cc(COc2ccc(F)cc2Cl)on1)N1CCCCCC1
→ .	0.1	1.6	0.68	-22	-5	i
CC1CCC/C=C/C(=O)c2c(O)cc(O)cc2CC(=O)O1 (stereo unspecified)
→ 1.9	.	-0.4	.	68	27	i
O=C(NCc1ccc(Cl)cc1)NCC(F)(F)F
→ -2.1	0.7	1.7	0.72	-3	-4	.
CCc1c(O)nc(SCC(=O)Nc2ccccc2OC)n(-c2ccccc2C)c1=O
→ 7.7	1.1	3.7	0.69	36	-3	i
O=C1NC(Cc2c[nH]c3ccccc23)C(=O)N1CCOc1ccccc1 (stereo unspecified)
→ -1.8	0.0	-4.4	0.71	.	-4	.
O=C1C[C@H]2CCCCC(=O)N3CC[C@@H](C1)[C@@H]23
→ .	.	-2.9	.	.	0	i
CC1=CC2C(C3C=CC2(C)C(=O)C3(C)O)C(C)(O)C1=O (stereo unspecified)
→ .	1.5	4.4	0.69	.	-2	i
CN(C)c1ncc(S(=O)(=O)c2ccc(Cl)cc2)c(-c2ccccc2)n1
→ -1.4	4.4	0.4	0.74	-5	-2	.
O=C(Nc1ccccc1)c1cc2ccccc2o1
→ -4.0	2.4	-0.3	0.66	0	-1	.
Cc1cccc(NC(=O)CSc2n[nH]c(-c3ccncc3)n2)c1C
→ 7.7	0.4	0.7	0.73	-24	1	i
COc1ccccc1C(=O)C1CCCN(C(=O)C2=CC(=O)CC(C)(C)O2)C1 (stereo unspecified)
→ 3.2	1.4	0.0	0.66	2	-4	i
COc1ccc(Cc2nc3ccc(C(=O)NCC4CCOCC4)cc3o2)cc1OC
→ -1.8	0.8	0.6	0.7	-1	-7	i
CCc1ccc(-n2c(=S)sc3c(=O)n(-c4ccccc4OC)c(=S)[nH]c32)cc1
→ -3.1	8.7	1.8	0.7	-3	7	i
CC1CN(C(C)C)C(C)CC1OC(=O)c1ccccc1 (stereo unspecified)
→ 3.5	2.0	0.5	0.67	28	2	i
O=C(NCc1ccco1)C(=O)NCC1OCCCN1S(=O)(=O)c1ccc(F)cc1 (stereo unspecified)
→ -5.0	-0.7	2.0	0.67	2	-15	.
CCOC(=O)c1cccc(N2C(=O)C3C(C(=O)NC4CC4)C4(C)C=CC3(O4)C2C(=O)NC(C)(C)C)c1 (stereo unspecified)
→ 1.1	0.3	0.6	0.75	1	-1	.
CCCCC(=O)N/N=C(\C)CC(=O)Nc1cc(Cl)ccc1OC
→ -1.2	.	-0.2	.	-2	6	.
CC(NC(=O)NC12CC3CC(CC(C3)C1)C2)C1CCCO1 (stereo unspecified)
→ -0.8	1.0	-0.3	0.71	-4	-2	.
Nc1nc(SCC(=O)NCC2CCCO2)[nH]c(=O)c1NC(=O)c1ccco1 (stereo unspecified)
→ 1.9	-0.4	2.9	0.67	.	0	i
CCCCn1c(N)c(N(Cc2ccccc2OC)C(=O)C2=COCCO2)c(=O)[nH]c1=O
→ 7.0	1.8	2.0	0.65	-12	-5	i
Cc1ccc(C(=O)NNC(=S)Nc2cccc(Cl)c2Cl)cc1[N+](=O)[O-]
→ 0.2	-1.9	3.7	0.68	97*	3	i
Cc1ccc(S(=O)(=O)N2CCOC2CNC(=O)C(=O)NCCCc2ccccc2)cc1 (stereo unspecified)
→ -2.8	0.1	-1.5	0.7	3	-4	i
CC1CCCCC1NC(=O)c1ccc(S(=O)(=O)NNC(=O)c2ccncc2)cc1 (stereo unspecified)
→ 2.1	3.9	4.4	0.72	99*	-6	i

Single records, as listed above. Order of screens: LANA-H2B inh | UCH37 inh | HNF4A DNA FP | E coli growth | ALR H2O2 inh | Beta2AR agonist | FGF22 binding
Profile of Cc1cccc(NC(=O)CSc2n[nH]c(-c3ccncc3)n2)c1C = 7.7 | 0.4 | 0.7 | 0.73 | -24 | 1 | i
Profile of CC1CN(C(C)C)C(C)CC1OC(=O)c1ccccc1 (stereo unspecified) = 3.5 | 2.0 | 0.5 | 0.67 | 28 | 2 | i
Profile of COc1ccccc1C(=O)C1CCCN(C(=O)C2=CC(=O)CC(C)(C)O2)C1 (stereo unspecified) = 3.2 | 1.4 | 0.0 | 0.66 | 2 | -4 | i

The list goes on:
Values in the order: LANA-H2B inh	UCH37 inh	HNF4A DNA FP	E coli growth	ALR H2O2 inh	Beta2AR agonist	FGF22 binding
O=S(=O)(NCCc1ccncc1)c1ccccc1
→ 3.2	1.3	0.6	0.61	-24	13	.
COc1cc(NC(=O)c2cccc(C)c2)c(Cl)cc1[N+](=O)[O-]
→ 1.0	1.5	4.1	0.68	.	-1	.
CCCc1cc(=O)[nH]c(SCc2csc(-c3ccccc3)n2)n1
→ 4.3	2.8	-0.7	0.65	99*	-5	i
Cc1ccccc1C(=O)Nc1ccc(C(=O)NNC(=O)CCCOc2ccc(Cl)cc2Cl)cc1
→ -1.1	-1.0	2.5	0.76	7	1	.
CCC(=O)c1ccc(OCC(O)Cn2nc(C)c(Br)c2C)cc1 (stereo unspecified)
→ 0.8	0.0	2.1	0.65	.	0	i
CC1(C)C(=O)Nc2ccccc2N1C(=O)COC(=O)c1cccc(O)c1
→ 2.2	-0.9	-3.5	0.66	3	-1	i
O=C(Cn1c(=O)oc2cc(S(=O)(=O)N3CCCCCC3)ccc21)NC1CCCCCCC1
→ -0.3	-0.1	5.3	0.79	-1	7	i
CCC(CC)C(=O)Nc1cccc(/C(C)=N/NC(=O)c2ccccc2Cl)c1
→ 3.8	.	-2.5	.	-11	6	.
CC1CCN(CC(=O)Nc2sc3c(c2C#N)CCC3)CC1
→ -0.6	37*	-0.7	0.64	33	-14	.
CC(C)CNC(=O)C(=O)NCCC1CCCCN1S(=O)(=O)c1cccs1 (stereo unspecified)
→ 14	2.6	-2.5	0.63	-1	-5	i
c1ccc(C(Nc2cccnc2)c2ccccc2)cc1
→ .	.	-1.6	.	.	1	i
Cc1ccc(S(=O)(=O)N2CCOCC2)cc1C(=O)NC(=S)N1CC(C)OC(C)C1 (stereo unspecified)
→ 0.6	1.9	-2.3	0.66	0	-5	i
COc1cc(C)ccc1OCCOc1c(C)cccc1Cl
→ 0.0	1.6	-0.1	0.69	2	-2	.
C/C(=C\C(=O)c1ccncc1)Nc1ccccc1O
→ -0.4	12	4.1	0.69	.	7	.
Cc1ccc(NC(=O)c2oc3ccccc3c2NC(=O)C2CCCO2)cc1C (stereo unspecified)
→ -1.2	-7.0	-2.2	0.7	2	8	i
CN1C(=O)/C(=C2\SC(=S)N(NC(=O)c3cccnc3)C2=O)c2ccccc21
→ 1.8	2.4	-0.6	0.68	-1	-1	i
Cc1cc(C(=O)COC(=O)c2csc3c2CCCC3)c(C)n1C
→ -13	2.4	2.5	0.72	-1	4	.
CCSC1=NCCN1S(=O)(=O)c1ccc(NC(C)=O)cc1
→ 1.8	5.1	-0.5	0.69	-7	-4	i
CCOC(=O)CSc1ncnc2c1cnn2-c1ccccc1
→ -0.8	1.5	1.6	0.67	-5	0	.
CCOc1ccc(NC(=O)CN(C)C(=O)COc2cccc3c2OC(C)(C)C3)cc1OCC
→ -0.2	5.7	-2.2	0.67	.	5	i
CCOC(=O)c1[nH]c(Cc2[nH]c(C(=O)OCC)c(C)c2CCC(=O)OC)c(CCC(=O)OC)c1C
→ -2.8	2.2	-1.0	0.66	-2	-1	.
Cc1cc(S(=O)(=O)Nc2nc(CN3CCOCC3)nc3sc4c(c23)CCC4)cc(C)c1C
→ .	-6.2	-5.7	0.7	.	3	i
COc1ccc(S(=O)(=O)N2CCN(CCOc3ccc(Br)cc3)CC2)cc1OC
→ 1.7	.	-1.1	.	-4	-4	i
O=C(Cc1cccs1)Nc1ccccc1C(=O)O
→ -3.5	2.8	3.7	0.72	-6	-5	.
O=C(CSc1nnc(Cc2ccccc2)o1)NCCc1ccccc1
→ 3.9	2.7	12	0.66	-11	-1	i
CCN1CCN(Cc2ccc(NC(=O)c3ccc(C)c(NC(=O)c4ccnnc4)c3)cc2C(F)(F)F)CC1
→ -1.3	2.9	3.5	0.68	-6	-4	i
Fc1ccc(Nc2ncnc3sc4c(c23)CCC4)cc1F
→ -2.4	11	1.6	0.69	1	-1	.
CC(C)C(=O)Nc1nnn(C)n1
→ 6.0	-0.2	-2.8	0.7	-2	3	.
Cc1ccc(CN(Cc2ccco2)C(=S)NCC(=O)NCc2cccnc2)cc1
→ 9.8	-0.5	4.7	0.73	-1	-11	i
CC(C(=O)OCC(=O)c1ccc([N+](=O)[O-])cc1)N1C(=O)C2C3CCC(C3)C2C1=O (stereo unspecified)
→ 4.2	4.1	3.2	0.67	29	1	i

Screens: PubChem, several laboratories
